# KCNQ2 enhance: potentiators of rat KCNQ2 potassium channel. B-score at 10 µM. AID 2239, 2010. CHO-K1 KCNQ2, FluxOR thallium flux fluorescence; stronger effect = higher value. 0.54% of 310,000 active;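 active = fluorescence ratio B-score at least 3 SD of library B-scores, with initial fluorescence B-score within 3 SD, cut at about 5.3 in these data; same plate scores as AID 2156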;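 also: B-score of peak minus minimum over baseline fluorescence ratio after K+ and Tl+ stimulus; positive B-score means potentiation of KCNQ2 with more thallium influx and brighter signal; only the inactives scoring about 0 or higher are listed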
# Target sequence (O88943 whole entry, looked up): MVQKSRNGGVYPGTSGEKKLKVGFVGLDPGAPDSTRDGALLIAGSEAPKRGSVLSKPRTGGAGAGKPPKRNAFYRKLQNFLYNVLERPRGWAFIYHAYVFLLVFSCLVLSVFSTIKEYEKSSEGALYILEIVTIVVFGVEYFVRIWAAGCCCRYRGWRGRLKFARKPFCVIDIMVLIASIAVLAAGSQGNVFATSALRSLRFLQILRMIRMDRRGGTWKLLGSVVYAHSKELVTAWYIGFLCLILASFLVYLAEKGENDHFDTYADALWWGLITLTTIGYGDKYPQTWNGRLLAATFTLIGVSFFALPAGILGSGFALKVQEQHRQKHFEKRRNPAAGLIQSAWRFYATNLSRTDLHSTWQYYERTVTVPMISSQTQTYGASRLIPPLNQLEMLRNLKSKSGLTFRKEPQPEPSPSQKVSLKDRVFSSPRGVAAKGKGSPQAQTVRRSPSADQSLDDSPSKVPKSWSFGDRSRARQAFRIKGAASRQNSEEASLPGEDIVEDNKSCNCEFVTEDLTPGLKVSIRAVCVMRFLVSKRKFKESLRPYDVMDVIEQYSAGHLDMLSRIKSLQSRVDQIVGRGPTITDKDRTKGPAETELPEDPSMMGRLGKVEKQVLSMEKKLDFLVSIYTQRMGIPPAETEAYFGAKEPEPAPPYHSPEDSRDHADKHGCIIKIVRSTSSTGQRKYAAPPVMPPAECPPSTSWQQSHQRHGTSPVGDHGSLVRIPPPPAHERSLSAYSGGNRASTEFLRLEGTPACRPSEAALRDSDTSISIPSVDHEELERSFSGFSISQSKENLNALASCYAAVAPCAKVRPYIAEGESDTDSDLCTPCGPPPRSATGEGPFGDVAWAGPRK
# KCNQ2 enhance baseline: recorded beside KCNQ2 enhance, whose call it bears; B-score; compound at 10 µM; measured here: initial fluorescence intensity artifact check;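 brightness before thallium and not channel activity; 0 = typical well and far values either way flag optical interference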
# Starred values were filed as active, the others as inactive.
SMILES	KCNQ2 enhance	KCNQ2 enhance baseline
Cc1ccc(N2CN=c3s/c(=C\c4ccccn4)c(=O)n3C2)cc1	1.06	-1.27
COc1ccccc1CCNC(=O)CCn1c(=O)oc2ccccc21	0.61	0.85
Cc1ccc(/C=C/C(=O)c2ccccc(=O)c2O)c(C)c1	5.94*	1.38*
CC1(C)C2CCC1(CS(=O)(=O)N1CCN(c3ccccc3F)CC1)C(=O)C2 (stereo not given)	2.24	-1.22
CC(=O)Nc1ccc2nc(SCC(=O)O)sc2c1	1.36	1.83
C/C(=N\NC(N)=S)c1cc(-c2ccccc2)c(-c2ccccc2)s1	0.02	0.83
Cc1cc(C)cc(NC(=O)C2CCN(c3nc(C)cc(C)n3)CC2)c1	0.78	-0.29
CCCS(=O)(=O)N1CCN(C2CCC(C)CC2)CC1 (stereo not given)	0.13	0.29
Cc1ccc(C2NC(=O)NC(O)(C(F)(F)F)C2C(=O)c2ccccc2)o1 (stereo not given)	0.21	-0.74
CCC(C(=O)NC1CCCCC1)n1nc(C)c2c(C)n(-c3ccccc3)nc2c1=O (stereo not given)	0.81	1.09
O=C(O)CC1C(=O)NCCN1C/C=C/c1ccccc1 (stereo not given)	0.14	-0.41
COC(=O)CCC(=O)OC1(C)C(=O)C2=CN(Cc3ccc(OC)cc3)C(c3ccc(OC)cc3)=CC2=C(Br)C1=O (stereo not given)	0.01	0.15
CC(C)(C)N=C1NN=C(c2ccc(S(=O)(=O)N3CCCCC3)cc2)CS1	1.85	-0.21
Cn1c(=O)c2c(O)c(C=Nc3ccc(F)cc3)c(=O)n(C)c2n(C)c1=O	1.26	0.68
COc1ccc(C2=NOC(C(=O)Nc3cccnc3)C2)cc1 (stereo not given)	0.26	-1.37
CCOC(=O)/C(=N\Nc1ccccc1Cl)N1CC(C)OC(C)C1 (stereo not given)	0.09	1.53
CCOC(=O)C1CCN(C(=O)c2ccccc2NS(=O)(=O)c2cc(C)ccc2C)CC1	0.59	-1.11
CCCCNc1c(-c2ccc(-c3ccc(C(C)=O)cc3)c(OC)c2)nc2cnccn12	0.46	0.03
COc1cc(NC(=O)CCc2nnc3ccc(N4CCOCC4)nn23)cc(OC)c1OC	0.12	-1.07
CCc1noc(C)c1C(=O)N1CCN(S(=O)(=O)c2cc(C)ccc2C)CC1	1.18	2.13
COc1cccc(C(c2sc3nc(C)nn3c2O)N2CCN(c3ccccc3F)CC2)c1 (stereo not given)	1.14	2.27
CCN(Cc1ccc(OC)c(F)c1)C(=O)C1CCCO1 (stereo not given)	0.05	0.2
OC(c1nnc(-c2ccccc2)o1)c1cccs1 (stereo not given)	0.09	1.02
O=C(CCSc1ccccc1)Nc1ncccn1	1.88	-0.1
O=C(COC(=O)Cc1ccccc1[N+](=O)[O-])NC1CCCC1	0.68	0.37
CC(=O)N(C)c1ccc(NC(=O)COc2ccc(Br)cc2C)cc1	1.22	-1.34
COc1ccc(-c2noc(N3CCC(C(=O)N(C)c4ccccc4)CC3)n2)cc1	0.01	-0.33
O=C(CC1(O)C(=O)N(CCc2ccccc2)c2ccccc21)c1ccccn1 (stereo not given)	0.98	-0.02
CCCCc1nc2cc(C(=O)N3CCCCC3CC(=O)OCC)ccc2o1 (stereo not given)	1	-1.11
Cc1nc2sc(C(c3ccc(Br)cc3)N3CC(C)OC(C)C3)c(O)n2n1 (stereo not given)	0.31	-1.26
Cc1ccc(NC2=CC(=O)CC(C)(C)C2)cc1C	0.97	0.07
CCSc1nnc(NC(=O)CSc2nnc(-c3c[nH]c4ccccc34)n2CC)s1	0.05	0.88
NC(=O)c1nsc(C(=O)N(Cc2ccco2)C(C(=O)NC2CCCC2)c2ccc(O)cc2)c1N (stereo not given)	2.08	1.89
COC(=O)c1cc(OC)c(OC)cc1NC(=O)c1ccc(C)cc1	0.15	0.88
COc1ccc(C(CNC(=O)Cc2ccccc2F)N2CCCCC2)cc1 (stereo not given)	1.68	1.48
COc1ccc(C2C(C#N)=C(SC)NC3=C2C(=O)CC(C)(C)C3)cc1 (stereo not given)	1.23	-0.08
CN1CCN(c2ccc(NC(=O)c3ccc(C#N)cc3F)cc2Cl)CC1	0.96	-1.31
CCCC(=O)c1cc2c(cc1NC(=O)CC)OCCO2	1.1	1.8
CC(C)[C@H](NC(=O)N1CC(=O)Nc2ccccc21)C(=O)Nc1nccs1	0.79	-0.67
CC(C)NC(=O)c1ccc(COCC(F)(F)F)cc1	0.8	-1.49
CCOc1ccccc1CNC(=O)CCc1cn(C)c2ccccc12	0.08	1.22
CN(C)C(CNC(=O)c1cc(S(=O)(=O)N(C)c2ccc(F)cc2)ccc1Cl)c1ccco1 (stereo not given)	0.58	0
CCOC(=O)c1cnc(-n2nc(C)cc2C)nc1N(C)C	0.2	-0.07
Cc1c(NC(=O)/C(=C/c2cccs2)c2cccs2)c(=O)n(-c2ccccc2)n1C	0.26	-1.29
CCSc1nnc2c(n1)OC1(CCCC1)Nc1ccccc1-2	0.01	-2.23
Cc1noc(C)c1S(=O)(=O)NCCc1ccc(S(N)(=O)=O)cc1	2.27	-0.31
C=CCOc1ccc(C(=O)/C=C2/C(=O)Nc3ccccc32)cc1	0.03	-0.67
CCc1nnc(SCC(=O)Nc2ccc3c(c2)OCO3)o1	1.54	-0.27
S=c1[nH]nc(-c2ccccc2)c2ccccc12	2.45	-0.08
Cc1ccc(S(=O)(=O)NCCSc2nnnn2-c2ccccc2)cc1	0.37	-1.64
c1csc(-c2nc(-c3ccncc3)no2)c1	0.33	-1.69
Cc1ccnc(Nc2nc(-c3ccc(O)cc3)cs2)c1	0.2	1.32
O=C(CN1CCN(CCO)CC1)Nc1ccccc1	0.42	1.31
O=C(CSC(=S)N1CCCC1)N1CCN(S(=O)(=O)c2cccc([N+](=O)[O-])c2)CC1	0.56	1.12
C=CCNC(=O)C(C)N1c2cccc3cccc(c23)S1(=O)=O (stereo not given)	0.35	2.4
CN(C)c1ccc(NC(=O)c2ccc(N3CCOCC3)nc2)cc1	0.74	1.56
COc1cc(C=Nc2ccccc2C(=O)Nc2ccccc2)cc(OC)c1OC	1.06	-1.69
COc1ccc(-c2cc(=O)c3c(O)c(OC)c(O)cc3o2)cc1	0.91	-0.53
CCc1cccc(NC(=O)c2cccc(S(=O)(=O)N3CCN(C)CC3)c2)c1	1.57	-0.65
O=C(CSCCO)Nc1ccc(C23CC4CC(CC(C4)C2)C3)cc1	1.3	-1.05

# The results go on.
SMILES	KCNQ2 enhance	KCNQ2 enhance baseline
C/C(=N\NS(=O)(=O)c1ccccc1)c1ccccc1	0.82	0.04
COc1ccc(N2C(=O)CC(N3CCOCC3)C2=O)cc1 (stereo not given)	1.39	0.83
O=C(c1ccc(C(F)(F)F)cc1)N1CCN(S(=O)(=O)c2ccc3c(c2)OCCCO3)CC1	1.86	0.04
C=CCC1c2cccc(C(=O)O)c2C(=O)N1c1ccc(Cl)cc1 (stereo not given)	0.65	1.07
O=C(COC(=O)CC1CC2CCC1C2)Nc1ccc(F)cc1 (stereo not given)	0.6	-2.43
CC(C)c1ccc(OCC(=O)Nc2c3c(nn2C(C)(C)C)CS(=O)(=O)C3)cc1	0.91	-2.07
COc1ccc(-n2c(Cc3cccn3C)nnc2SCC(=O)Nc2ccccc2)cc1	0.36	0.09
COc1ccc(CCN(C)C(=O)C2CCN(C(=O)Nc3ccccc3)CC2)cc1OC	0.58	-0.06
CCOC(=O)c1oc2ccc(S(=O)(=O)n3nc(-c4ccccc4)cc3N)cc2c1C	1.95	0.08
O=C(NC(=S)NC1CCCCC1)c1ccccc1[N+](=O)[O-]	0.58	0.03
Cc1ccc(CCNC(=O)CN(c2ccc(C)cc2)S(=O)(=O)c2c(C)noc2C)cc1	0.47	0.12
CN1CCN(NC(=S)NC2CCCC2)CC1	1.11	0.2
COCCCNC(=O)Nc1ccc(Br)cc1Cl	0.17	0.16
Cc1ccccc1-n1c(Cn2c(=O)sc3ccccc32)nnc1SCC(N)=O	1.09	-1.15
Cc1ccc(C(=O)/C=C/Nc2ccccc2C(N)=O)cc1	1.54	-1.56
CCCC(=O)Nc1sc2c(c1C(=O)OC)C(C(=O)OC)CC2 (stereo not given)	0.98	-0.18
O=C(O)C1CCCN1c1ncnc2ccccc12 (stereo not given)	0.21	0.32
Cc1c(C(=O)Nc2cc(F)cc(F)c2)cnn1-c1ccccc1	0.13	0.28
Nc1ccc(N2CCN(c3ccc(F)cc3)CC2)cc1	0.28	0.22
O=C(CSc1nnc(Cn2nnc(-c3ccccc3)n2)n1-c1ccccc1)Nc1ccc(F)cc1	0.38	1.92

# Another view of 5 compounds above.
KCNQ2 enhance	KCNQ2 enhance baseline	structure
0.47	0.12	Cc1ccc(CCNC(=O)CN(c2ccc(C)cc2)S(=O)(=O)c2c(C)noc2C)cc1
1.11	0.2	CN1CCN(NC(=S)NC2CCCC2)CC1
0.17	0.16	COCCCNC(=O)Nc1ccc(Br)cc1Cl
1.09	-1.15	Cc1ccccc1-n1c(Cn2c(=O)sc3ccccc32)nnc1SCC(N)=O
1.54	-1.56	Cc1ccc(C(=O)/C=C/Nc2ccccc2C(N)=O)cc1

# Four compounds already listed, arranged by the number in KCNQ2 enhance, high to low:
SMILES	KCNQ2 enhance	KCNQ2 enhance baseline
NC(=O)c1nsc(C(=O)N(Cc2ccco2)C(C(=O)NC2CCCC2)c2ccc(O)cc2)c1N (stereo not given)	2.08	1.89
COc1ccc(N2C(=O)CC(N3CCOCC3)C2=O)cc1 (stereo not given)	1.39	0.83
CCOC(=O)/C(=N\Nc1ccccc1Cl)N1CC(C)OC(C)C1 (stereo not given)	0.09	1.53
CCSc1nnc2c(n1)OC1(CCCC1)Nc1ccccc1-2	0.01	-2.23

# The results go on.
SMILES	KCNQ2 enhance	KCNQ2 enhance baseline
Nc1ncnc(NCc2ccc(F)cc2)c1[N+](=O)[O-]	0.75	-0.24
COc1cccc(CNC(=O)C(=O)NCC(c2ccco2)N2CCOCC2)c1 (stereo not given)	0.03	-0.9
COc1ccc(Oc2coc3cc(OC(=O)/C=C/c4ccccc4)ccc3c2=O)cc1	1.05	-0.12
CCOc1ccc2[nH]c3nc(SCC(=O)OC(C)C)nnc3c2c1	0.88	-0.37
Cc1[nH]c(=O)[nH]c(=O)c1Cc1cccc2ccccc12	0.74	-0.49
O=C(C1CC1)N1CCCN(C(=O)C2CC2)CC1	0.89	-2.64
COc1cccc(CN2CCN(Cc3cccc(Br)c3)CC2)c1OC	0.25	-0.03
O=C1CCC(N2C(=O)c3ccccc3C2=O)C(=O)N1 (stereo not given)	0.46	-1.02
O=C(CCl)Nc1ccc2c(c1)OCO2	1.85	0.02
Cn1c(=O)c(C(=O)COC(=O)c2cc(C(F)(F)F)nc3ccccc23)c(N)n(Cc2ccccc2)c1=O	0.3	0.4
COc1ccccc1CN=C1NC(=O)C(CC(=O)Nc2ccc(OC)c(OC)c2)S1 (stereo not given)	0.95	-1.99
Cc1ccc2c(c1)C1CN(C)CCC1N2C(=S)NC(=O)c1ccc(Cl)cc1Cl (stereo not given)	1.87	0.64
CN1CCN2c3ncccc3Cc3ccccc3C2C1 (stereo not given)	0.99	1.71
Cc1nc(SCC(=O)Nc2ccc3c(c2)OCCO3)c2oc3ccccc3c2n1	0.25	-0.57
COc1ccc(/C=C(/NC(=O)c2cccs2)C(=O)NCc2ccco2)cc1OC	0.04	-0.22
COc1ccc(OC)c(-n2c(O)cnc2Nc2nc(C)cc(C)n2)c1	0.54	-0.35
Cc1cc(=O)oc2cc(OCC(O)CN3CCN(c4ccc(F)cc4)CC3)ccc12 (stereo not given)	0.72	-0.05
CSc1cccc(NC(N)=O)c1	0.16	-0.39
CCC(NC(=S)NC1CCCCC1)c1ccc(C)cc1 (stereo not given)	22*	-2.02*
CCC(C)NC(=O)C1CCC(=O)N1Cc1ccc(C)cc1 (stereo not given)	0.74	0.1
COc1cccc(Nc2nnc(SCC3CCCCO3)s2)c1 (stereo not given)	0.21	-0.03
Cc1ccsc1-c1nc(CN2CCN(C)C(=O)[C@@H]2C)c(C)o1	1.62	0.72
N#Cc1ccccc1OCC(O)CS(=O)(=O)c1ccccc1 (stereo not given)	0.74	-0.55
Cc1ccc2nc(NCCCO)nc(-c3ccccc3)c2c1	1.62	-0.54
Cc1c([N+](=O)[O-])cc(C(=O)Nc2ccc(Cc3ccncc3)cc2)cc1[N+](=O)[O-]	1.02	1.05
CCCn1c(CN2CCN(C(=O)OCC)CC2)nc2cc(NC(=O)C(C)C)ccc21	0.7	-0.52
O=C(CN1C(=O)CSC1=O)NC1CCCCC1	1.77	0.21
CCCN(CCC)S(=O)(=O)c1ccc(C(=O)NCc2ccco2)cc1	1.27	0.3
CCN(CC)CCCNC(=O)N[C@@H](Cc1ccccc1)C(=O)O	0.88	-1.03
O=C(c1ccco1)N1CCC(c2nc(-c3ccccc3Cl)no2)CC1	0.25	1.56
O=c1c2ccccc2nnn1Cc1ccc2ccccc2c1	0.26	-0.17
COc1nc(Cl)cn(-c2ccc(C)cc2)c1=O	0.1	0.01
Cc1cccc(N(C(=O)Cn2nnc3ccccc32)C(C(=O)NC(C)(C)C)c2ccsc2)c1 (stereo not given)	0.15	0.62
COCCN(CCOC)c1ncnc2c1cnn2-c1ccccc1	0.3	-1.83
CN1CCN(c2ccccc2NC(=O)c2ccc3c(c2)OCCO3)CC1	0.91	0.09
O=C(Cn1ncnn1)OCc1ccccc1Cl	0.28	-0.14
C/C(=N\NC(=O)c1ccc(Br)cc1)C1C(=O)c2ccccc2C1=O	0.06	0.04

# An excerpt, so the mix of outcomes need not match the whole.
